# Screens as filed in PubChem.
# 2A firefly = lowers the firefly signal of an FMDV 2A StopGo reporter; HEK cells with a luciferase reporter of 2A StopGo recoding; Potency, µM (titrated, usually from 57.5 µM), for the others: top-dose signal change, negative = less light; AID 1745856; 120,000 compounds, 0.23% hits; active = well fitted falling curve with a large enough effect; inconclusive = small, poorly fitted or top-dose-only effect; inactive = no such curve, though single readings can be large or run the other way; note: nearly all actives have a fitted effect of over 60% in size; overnight with compound
# 2A Renilla = FMDV 2A StopGo reporter, Renilla signal | HEK cells with a luciferase reporter of 2A StopGo recoding | Potency, µM (highest dose often 57.5 µM), inactives show at the top dose signal change, negative = less light | 120,000 compounds, 0.32% hits | AID 1745857; active means well fitted falling curve with a large enough effect; inconclusive means small, poorly fitted or top-dose-only effect; inactive means no such curve, though single readings can be large or run the other way; note: nearly all actives have a fitted effect of over 55% in size; overnight with compound
# * hit, by the source's call; ? = inconclusive; & = joins results of further samples; [ ] = remark or other dose. % is set by controls: 0 for no effect and ±100 for the full control effect; potency is the fitted concentration of half-maximal effect. A portion of the library, so the mix of outcomes need not match the whole.
# Screens in order – 2A firefly	2A Renilla
CCOc1ccc(NC(=O)CC2C(=O)N(c3ccc(OC)cc3)C(=O)N2C2CCCCC2)cc1 (stereo not given)
  5%	9%
O=C(Nc1cccc(S(=O)(=O)Nc2ccccc2F)c1)c1cncn1-c1ccccc1
  9%	256%[activator]
NS(=O)(=O)c1ccc(N/N=C/c2ccc[nH]2)c([N+](=O)[O-])c1
  29%	-19%
CC(C)(C)C(=O)NCCc1nc2ccccc2n1CCCCOc1ccccc1
  -14%	-1%
CCc1sc(C(=O)OCc2ccc(C#N)cc2)cc1C
  13%	8%
CC(NCc1ccccc1)C(=O)C12CC3CC(CC(C3)C1)C2 (stereo not given)
  -3%	1%
Cc1ccc(C(=O)Nc2ccccc2)cc1S(=O)(=O)Nc1ccc(Br)cc1
  -9%	0%
CCOc1ccccc1N1CC(c2nc3ccccc3n2CCOc2ccc(C(C)(C)C)cc2)CC1=O (stereo not given)
  -12%	3%
N#C/C(=C/c1ccc(OC(F)F)cc1)C(=O)Nc1cccc(C(F)(F)F)c1
  18%	184%[activator]
CCOc1cc(COC(=O)c2cccc(S(=O)(=O)N3CCOCC3)c2)ccc1OC(F)F
  -8%	-6%
CCN(Cc1cn(CC2CCCCC2)nn1)S(=O)(=O)c1ccccc1Br
  ?	-4%
Cc1ccc(C(=O)CC2(O)C(=O)N(CN3CCN(C)CC3)c3ccccc32)s1 (stereo not given)
  3%	17%
CC(=O)Nc1cccc(-c2csc(Nc3ccc(O)cc3C)n2)c1
  28%	23%
Cc1ccc2nc(-c3ccco3)cc(C(=O)O)c2c1
  0%&37%	-7%&-3%
CC(=O)N1CCc2cc(Br)cc(S(=O)(=O)N3CCN(c4cccc(C)c4)C(C)C3)c21 (stereo not given)
  -15%	3%
CCOc1ccc(OCCn2c(CN3CCOCC3)nc3scc(-c4cccs4)c3c2=O)cc1
  -12%	-2%
COC(=O)Nc1cc(C(=O)OC)cc(C(=O)OC)c1
  -2%	-2%
COC(=O)c1ccc(COC(=O)C(c2ccccc2)c2ccccc2)o1
  -2%	6%
CCc1cc(=O)oc2c(C)c(OC(C)C(=O)NCc3cccnc3)ccc12 (stereo not given)
  3%	-4%
CCCNc1c(NC(=O)Nc2ccccc2Cl)c(=O)oc2ccccc12
  13%	17%
Cc1ccc(NC(=O)c2cc(-c3ccc4c(c3)OCO4)on2)cc1
  16%	2%
CCCNc1c(NC(=O)Cc2ccc(OC)c(OC)c2)c(=O)oc2ccccc12
  8%	-1%
CCOC(=O)C(O)(c1c(C)[nH]c2ccccc12)C(F)(F)F (stereo not given)
  1%	13%
CC1=C(C(=O)Nc2ccc(C)cc2)C(c2ccc(Br)cc2)NC(=S)N1 (stereo not given)
  -10%	-1%
Cc1cc(F)ccc1NC(=O)CN1C(=O)CCc2cc(S(=O)(=O)N3CCOCC3)ccc21
  -7%	2%
Cc1ccccc1NC(=O)COC(=O)COc1ccccc1
  -15%	-13%
COc1ccc(-c2cccc(NS(=O)(=O)c3cc(C)c(Cl)cc3C)c2)nn1
  -3%	248%[activator]
CCc1ccc(Oc2c(C(F)(F)F)oc3c(CN4CCCC(C)C4)c(O)ccc3c2=O)cc1 (stereo not given)
  -15%	-6%
CC(CN1CCOCC1)NS(=O)(=O)c1ccc(F)c(Cl)c1 (stereo not given)
  -9%	-11%
Cc1c(C)c2cc(Cl)c(OCC(=O)NCCN3CCOCC3)cc2oc1=O
  7%	3%
Cn1nc(-c2ccc(N3CCCCC3)c([N+](=O)[O-])c2)c2ccccc2c1=O
  -3%	-5%
Cc1cccc(N2CCN(S(=O)(=O)c3nnc(NC(=O)c4ccc(Cl)cc4)s3)CC2)c1
  -10%	-7%
CCn1ccc2cc(S(=O)(=O)N3CCC(C(=O)NCc4cccc(C)c4)CC3)ccc21
  -16%	16%
CN(Cc1ccc(Cl)cc1)C(C(=O)NC1CC1)c1ccc(F)cc1 (stereo not given)
  6%	35%[activator]
CCCc1ccc(NC(=O)CC2(C(=O)O)CCCC2)cc1
  0%	0%
S=c1sc2c(s1)SCCS2
  29%	3%
Cc1cccc(-c2nc(-c3ccc(F)cc3)no2)c1
  180%[activator]	3%
CCCCc1ccc(NC(=O)c2cc3c(=O)n4ccccc4nc3n2C)cc1
  13%	11%
COc1cc(CNC(C)C)cc(OC)c1
  18%	14%
CC(C)CN1CCC(NC(=O)N(C)Cc2ccc(C(F)(F)F)cc2)CC1
  -7%	-3%
Cc1ccc(OC(C)C(=O)N2CC(C)CC(C)C2)cc1 (stereo not given)
  ?	?
CN1C(=O)Cc2cc(S(=O)(=O)CCC(=O)N3CCN(c4ccc(Cl)cc4)CC3)ccc21
  -21%	-18%
NCc1ccc(C(=O)N2CCCC2)cc1
  -4%	-10%
Cc1ccc(NC(=O)Nc2nnc(SCC(=O)N(C(C)C)C(C)C)s2)cc1
  -19%	5%
Cc1nn(-c2ccc(Cl)cc2)c2nc(-c3cccnc3)cc(C(F)(F)F)c12
  -8%	1%
Cn1c(N2CCCCC2)nc2c1c(=O)n(Cc1cccc(Br)c1)c(=O)n2C
  5%	9%
CCc1ccccc1NC(=O)Cn1c(C(=O)OC)cc2oc(C)cc21
  -6%	-12%
CCn1c(-n2nc(C)cc2C)nc2c1c(=O)n(Cc1ccccc1F)c(=O)n2C
  -10%	-8%
CCSc1nn(CC(=O)N(CC)CC)c2nc3c(c(=O)n12)C(C)(CC)Cc1ccccc1-3 (stereo not given)
  -7%	-13%
CCCC1=Nc2cc(C(=O)N3CCC(C(=O)OCC)CC3)ccc2Sc2ccccc21
  -4%	-10%
CNC(=O)C1CCC(Cn2c(=O)c3sccc3n(CC(=O)Nc3cc(C)cc(C)c3)c2=O)CC1 (stereo not given)
  -15%	-6%
c1cncc(CN2CCNCC2)c1
  13%	9%
COc1cc(Cl)ccc1S(=O)(=O)N1CCC(C(N)=O)CC1
  -1%	0%
Cc1ccc(Cl)cc1NC(=O)Cn1cc2c(n1)CCCCC2
  -10%	-3%
O=Cc1c[nH]c2ccc(F)cc12
  13%	-1%
CN(C)S(=O)(=O)N1CC=C(c2c[nH]c3ccccc23)CC1
  65%[activator]	-4%
COc1c(C)cc(Br)cc1C(=O)Nc1ccc(-c2nc3ncccc3o2)cc1
  -6%	-6%
CCN1C(C(=O)c2ccccc2)=C(OC(=O)c2ccco2)c2ccccc2S1(=O)=O
  -3%	6%
Cc1nn(C(=O)c2ccccc2)c(C)c1S(=O)(=O)N1CCOCC1
  15%	5%
CC(C)c1nnc2ccc(SCC(=O)O)nn12
  -11%	-15%

# Remaining list, next part:
# Screens in order – 2A firefly	2A Renilla
COc1ccccc1CCNC(=O)c1sc(NC2CCCC2)nc1C
  9%	-4%
CCC(=O)OCCCNc1nc(-c2ccc(Cl)cc2)nc2ccccc12
  22%	8%
CCC(=O)Nc1ccc(CC)cc1-c1nc2ccccc2n(CC(=O)Nc2ccccc2C)c1=O
  -3%	23%
Cc1[nH][nH]c(=O)c1C(c1ccc(OCc2c(F)cccc2Cl)cc1)c1c(C)[nH][nH]c1=O
  50%[activator]	4%
O=C(CN1CCN(C(=O)c2ccc3ccccc3c2)CC1)Nc1ccccc1Cl
  ?	?
COc1ccc(OCC(O)Cn2c(NCCc3ccccc3)nc3c2c(=O)n(C)c(=O)n3C)cc1 (stereo not given)
  -17%	-4%
Cc1ccc(-c2nc(CNC(=O)Nc3ccccc3)c(C)o2)cc1
  11%&-10%	40%&60%[activator]
CCOc1ccc(CCNC(=O)C(CC(C)C)N2Cc3ccccc3C2=O)cc1OCC (stereo not given)
  -4%	-28%
CCC1CCC(NC(=O)c2ccncc2)CC1 (stereo not given)
  120%[activator]	23%
Cc1cc(=O)oc2cc(NC(=O)Cc3ccccc3F)ccc12
  135%[activator]	15%
CC(OC(=O)c1cc2ccccc2[nH]1)C(=O)NC1CC1 (stereo not given)
  -29%	?
c1ccc(SC(Sc2ccccc2)=C(Sc2ccccc2)Sc2ccccc2)cc1
  88%[activator]	54%[activator]
CCc1ccc(C2c3c(oc4ccc(F)cc4c3=O)C(=O)N2c2nc(C)c(C(=O)OC)s2)cc1 (stereo not given)
  -2%	-6%
CCC(=O)NC12CC3CC(CC(C3)C1)C2
  13%	13%
Cc1ccc(-c2cc(=O)c3cc(NC(=O)C(C)(C)C)ccc3o2)cc1
  188%[activator]	0%

# One compound at a time, as listed above. Screens in order: 2A firefly	2A Renilla
# Cc1nn(-c2ccc(Cl)cc2)c2nc(-c3cccnc3)cc(C(F)(F)F)c12 as listed: -8%	1%
# Cc1ccccc1NC(=O)COC(=O)COc1ccccc1 as listed: -15%	-13%
# COC(=O)Nc1cc(C(=O)OC)cc(C(=O)OC)c1 as listed: -2%	-2%
# CCc1cc(=O)oc2c(C)c(OC(C)C(=O)NCc3cccnc3)ccc12 (stereo not given) as listed: 3%	-4%
# CCCC1=Nc2cc(C(=O)N3CCC(C(=O)OCC)CC3)ccc2Sc2ccccc21 as listed: -4%	-10%

# Further compounds follow:
# Screens in order – 2A firefly	2A Renilla
CC(C)C(=O)Nc1ccc2[nH]cc(C(C(=O)O)N3CCN(c4ccc(Cl)cc4)CC3)c2c1 (stereo not given)
  -2%	-2%
COc1cn(CC(=O)Nc2ccc(F)cc2)c(CN2CCCCC2)cc1=O
  -21%	-3%
CCOC(=O)c1c(C)[nH]c(NC(=O)Nc2ccc(-c3ccccc3)cc2)c1C
  71%[activator]	3%
CCCn1cnc2nc(CSc3ccccc3NC(=O)c3cccc(Cl)c3)cc(=O)n21
  -9%	0%
COCCCNC(=O)c1cc2c(-c3cccc(OC)c3)nn(C)c2s1
  51%[activator]	71%[activator]
O=C(COc1ccccc1F)Nc1nn2cc(-c3ccccc3)nc2s1
  30%	-12%
O=C1C(Br)C2C3CC4C(CC(Br)C42)C13 (stereo not given)
  16%	7%
COc1ccccc1Nc1cc(C(=O)NC2CCC(C)CC2)c2ccccc2n1 (stereo not given)
  -7%	-5%
Cc1cc(-c2nnn(CC(=O)NC(C)C)n2)ccc1F
  36%[activator]	6%
CCCCc1c(C)nc2c(C)cccc2c1SCC(=O)O
  16%	4%
CCCSCCCNC(=O)CN1C(=O)COc2ccc(S(=O)(=O)N3CCCCCC3)cc21
  -4%	51%[activator]
Cc1ccc(S(=O)(=O)c2cn(Cc3ccccc3)c3cc(N4CCOCC4)c(F)cc3c2=O)cc1
  -18%	-5%
CCOC(=O)C1=CN(c2ccc(OCC)cc2)C=C(C(=O)OCC)C1c1ccc2c(c1)OCO2
  -4%	-4%
O=C(NC1CCCCC1)c1ccc(CSc2nc3cccnc3n2Cc2ccccc2)cc1
  -20%	-5%
COc1ccc(Nc2nc(N3CCOCC3)nc3c2cnn3C)cc1
  -11%	-10%
Cc1ccc(C)c(NC(=O)c2ccc3ccccc3n2)c1
  160%[activator]	-17%
O=C(NC(Nc1ccccc1F)C(=O)c1ccccc1)c1ccc(Cl)cc1 (stereo not given)
  0%	11%
Cc1ccc(Nc2nc3ccccc3nc2NS(=O)(=O)c2ccccc2)cc1
  25%	0%
Cc1ccc(C)c(NC(=O)Cn2ccn(-c3cccc(Cl)c3)c(=O)c2=O)c1
  39%[activator]	30%[activator]
Cc1c(-c2cccc(NC(=O)c3ccc(F)c(F)c3)c2)nc2ncccn12
  -7%	-5%
CCNc1c(NC(=O)c2ccccc2OCC)c(=O)oc2ccccc12
  0%	-4%
Cc1ccc(C(=O)/C=C/c2cccc3ccccc23)cc1[N+](=O)[O-]
  15%	-2%
COc1ccc(C2(C(N)=O)CCCC2)cc1
  7%	-2%
Cn1c(Sc2ncc(C(F)(F)F)cc2Cl)nnc1-c1ccncc1
  -7%	6%
CCN(CC)S(=O)(=O)c1ccc(Oc2cccc(C(C)=O)c2)nc1
  35%[activator]	24%
CC(NC(=O)CNC(=O)C1CCC(CNS(=O)(=O)c2ccc(Cl)cc2)CC1)c1ccccc1 (stereo not given)
  -3%	24%
CCc1cccc(NC(=O)c2sc3nc[nH]c(=O)c3c2C)c1
  32%[activator]	18%
CC(NC(=O)c1cccs1)C(=O)NCc1ccccn1 (stereo not given)
  15%	-5%
Cc1ccc(NC(=O)c2c(C)oc3ccc(O)c(CN4CCCCC4)c23)c(C)c1
  -11%	-13%
CCc1nn(CC(=O)Nc2ccc(N(CC)CC)cc2C)c(=O)c2cc3sccc3n12
  -7%	-11%
COc1ccc(CCNC(=O)c2cnc3sc(N4CCOCC4)nn3c2=O)cc1
  -12%	57%[activator]
CC(=O)Nc1ccc(NC(=O)C2(C)CC2(Cl)Cl)cc1Cl (stereo not given)
  14%	15%
COc1ccc(-c2cc3n(n2)CC(C)(C(=O)NCc2ccccc2)N(Cc2ccc(C)o2)C3=O)cc1 (stereo not given)
  1%	175%[activator]
O=S(=O)(Nc1nc2ccccc2nc1Nc1ccc(F)c(Cl)c1)c1cccs1
  -13%	-14%
C#Cc1cccc(NS(=O)(=O)c2cccs2)c1
  5%	240%[activator]
COc1ccc(N(C(=O)c2ccccc2C)S(=O)(=O)c2ccc(C)cc2)cc1
  24%	253%[activator]
O=c1[nH]c2cc3c(cc2c(=O)n1CCc1nc(-c2ccccc2)no1)OCO3
  13%	6%
CCc1ccc(-c2cc(C(=O)Nc3cccnc3)c3ccccc3n2)cc1
  150%[activator]	7%
Cc1cc(OC(=O)c2ccc(Cl)cc2)cc(OC(=O)c2ccc(Cl)cc2)c1
  9%	-6%
